Screening results (PubChem)
MLL AF4-AF9 inh = blocks AF4 peptide binding to human AF9; inhibition, % at 10 µM; 350,000 tested, 0.47% active; P42568; AID 651704; AlphaScreen, biotin-AF4 peptide binding to FLAG-AF9;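 active = every replicate reaching a set inhibition limit, whatever the replicate mean, cut at about 25% in these data; inconclusive = mean inhibition reaches that limit but some replicates miss it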;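 note: 0% = plate neutral control median and 100% = total signal loss; the record names both 10 and 1 µM as test concentration; the first replicate is given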
Target sequence (P42568 whole entry, looked up): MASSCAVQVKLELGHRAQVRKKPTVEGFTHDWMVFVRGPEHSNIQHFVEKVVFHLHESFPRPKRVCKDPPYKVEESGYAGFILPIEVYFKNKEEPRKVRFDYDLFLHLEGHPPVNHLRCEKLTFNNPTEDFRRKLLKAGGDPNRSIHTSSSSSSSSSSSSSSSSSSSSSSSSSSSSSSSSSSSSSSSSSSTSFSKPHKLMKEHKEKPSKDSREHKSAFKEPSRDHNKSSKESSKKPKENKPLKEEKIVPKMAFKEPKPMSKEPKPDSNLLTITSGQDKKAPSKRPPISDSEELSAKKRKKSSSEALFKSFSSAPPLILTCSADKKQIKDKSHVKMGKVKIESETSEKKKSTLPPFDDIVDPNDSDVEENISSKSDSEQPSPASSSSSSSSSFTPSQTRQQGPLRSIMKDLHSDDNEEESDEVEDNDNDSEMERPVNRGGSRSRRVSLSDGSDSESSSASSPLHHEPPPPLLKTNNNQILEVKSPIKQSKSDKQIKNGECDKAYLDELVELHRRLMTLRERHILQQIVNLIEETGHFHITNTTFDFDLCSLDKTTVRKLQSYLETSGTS
Vif TR-FRET = HIV-1 Vif–A3G interaction blockers – biochemical, TR-FRET, GST-Vif 1-94, biotin-A3G peptide, dose response retest, primary screen (AID 1117319). inhibition, %; hits with a dose series show IC50 in µM. TR-FRET GST-Vif / biotin-A3G peptide binding; higher % means a stronger effect; test concentration not given here; strong numbers were not always called active. 260,000 tested, 0.57% active;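 active = above the screen mean plus three standard deviations and confirmed in dose response; inconclusive = results disagree or hit not tested in dose response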;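 note: Vif residues 1-94 fused to GST binding biotinylated APOBEC3G peptide 110-148; 0% = full assay without inhibitor and 100% = GST in place of GST-Vif; retest series ran down from 100 µM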
Ecoli rRNA inh = selective bacterial rRNA inhibition in E. coli | GFP signal change (wild-type ribosome), % (no concentration beside the values) | AID 720706 | 350,000 tested, 1.6% active | E. coli WT GFP vs humanized-ribosome RFP mutants, fluorescence, 24 h; active compounds read low; DMSO median 0, no signal -100;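 active = significant combined selectivity score with lowered wild-type GFP, culture density cut under 30%, mutant RFP and density less affected; inactive = any of these conditions unmet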; note: one replicate is shown; some compounds called inactive have numbers as strong as hits
ALR inh = human ALR oxidase inhibition via reduced H2O2; P55789; purified ALR, DTT oxidation, H2O2 HRP-luminol luminescence; inhibition, % (concentration not given with the values); 290,000 tested, 3.8% active;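 active = mean and each replicate at 75% or more; inconclusive = only one of the two met; inactive = neither met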;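 note: stock transfer was 7.5 nL into about 7.5 µL; 0% = neutral wells and 100% = wells with inactivated enzyme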
Target sequence (P55789 whole entry, looked up): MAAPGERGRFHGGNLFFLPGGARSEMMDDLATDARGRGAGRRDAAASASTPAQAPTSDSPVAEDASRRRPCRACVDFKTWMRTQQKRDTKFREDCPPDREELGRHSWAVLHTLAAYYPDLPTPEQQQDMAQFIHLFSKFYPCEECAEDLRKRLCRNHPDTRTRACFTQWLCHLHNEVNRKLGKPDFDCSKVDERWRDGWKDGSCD
HNF4A DNA FP = change in binding of human HNF4 alpha to DNA; 360,000 tested, 0.3% active; activity change, % at 10 µM; AID 1224865; HNF4a-FITC DNA binding, fluorescence polarization, 1 h; in the data active = activity change above about 30%, passing the limit was not always enough;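 note: controls were the assay level and a saturating level of protein; the project sought stronger binding though the title names inhibitors; some compounds called inactive have numbers as strong as hits; positive values seem to mean higher polarization but the record does not say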
FGF22 binding = binders of recombinant human FGF22 by thermal shift | Q9HCT0 | calls only at 9.99 µM | 340,000 tested, 1.5% active | SYPRO orange fluorescence; percent of sucrose octasulfate shift, DMSO zero;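 active = melting point raised past a set limit in the mean and every replicate; inconclusive = no clear call; three in four hits are not shown here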
Target sequence (Q9HCT0 whole entry, looked up): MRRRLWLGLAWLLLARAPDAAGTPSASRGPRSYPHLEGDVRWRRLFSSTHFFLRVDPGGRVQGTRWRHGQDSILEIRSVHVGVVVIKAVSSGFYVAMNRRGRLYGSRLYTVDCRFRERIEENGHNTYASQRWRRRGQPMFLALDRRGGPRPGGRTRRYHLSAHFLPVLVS
E coli growth = E. coli growth inhibition | OD600 absorbance (concentration not given with the values) | 330,000 tested, 0.21% active | Escherichia coli growth, OD600, 23 h; active compounds read low;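 active = OD600 absorbance below the run mean of sample wells minus 3.6 SD, in any replicate, cut at about 0.56 in these data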;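 note: stock transfer was 300 nL into about 60 µL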
Ecoli rRNA inh OD600 = second read-out of Ecoli rRNA inh, no call of its own (marks repeat the call); OD600 change, %; measured here: OD600 growth;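 optical density of the mix in the first replicate; 0 = DMSO median and -100 = no signal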
Ecoli rRNA inh RFP = also measured in Ecoli rRNA inh; calls as there; RFP signal change, %; measured here: RFP humanized mutant strains;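 first replicate; 0 = DMSO median and -100 = no signal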
The depositor's hits bear a star; i = inactive; ? = inconclusive; . = not tested or not shown; & = joins results of further samples.

#1 CCC(=O)N1CCc2cc(S(=O)(=O)NCCC(=O)NCc3ccc(F)cc3)ccc21
#2 Cc1c(NC(=O)c2cc(-c3cccs3)nc3ccccc23)c(=O)n(-c2ccccc2)n1C
#3 Cc1ccc(C)c(N2CCN(C(=O)Cc3c(C(=O)O)[nH]c4ccc(Cl)cc34)CC2)c1
#4 O=C(N[C@@H]1CC[C@@H](CCNC(=O)C2CCCC2)O[C@@H]1CO)c1ccccn1
#5 Cc1ccc(OCC(O)Cn2c(NCCc3ccccc3)nc3c2c(=O)[nH]c(=O)n3C)cc1 (centres undefined)
#6 CCOC(=O)c1c(C)[nH]c(C(=O)COC(=O)CN2C(=O)C3CCCCC3C2=O)c1C (centres undefined)
compound no. | 1 | 2 | 3 | 4 | 5 | 6
MLL AF4-AF9 inh | -0.9 | 1.0 | 2.7 | -0.6 | . | .
Vif TR-FRET | . | 3% | 4% | . | 4%&-4% | 74%
Ecoli rRNA inh | -1 | 8 | -3 | 0 | . | -3
Ecoli rRNA inh OD600 | 0 | 11 | 2 | 1 | . | -6
Ecoli rRNA inh RFP | -0.9 | -0.9 | 7.0 | -2.9 | . | -0.4
ALR inh | -1 | 36 | 11 | . | -1 | -10
HNF4A DNA FP | -1.4 | 0.3 | -1.2 | . | -2.9 | 2.7
FGF22 binding | i | i | i | i | . | .
E coli growth | 0.72 | 0.73 | 0.7 | . | 0.8 | 0.72

#7 O=C(O)c1cccc(S(=O)(=O)Nc2ccc(O)c(Sc3nc4ccccc4s3)c2)c1
#8 COCCSc1ccccc1C(=O)N1CCOCC1
#9 COC(=O)c1ccc(S(N)(=O)=O)o1
#10 Cc1ccc(C(=O)CCc2ccc(N)cc2)cc1
#11 CCc1ccc(NC(=S)NC2CC3CCCC(C2)N3Cc2cccs2)cc1 (centres undefined)
#12 CCOc1ccc(/C=N/NC(=O)c2[nH]c3ccc(C)cc3c2C)cc1
compound no. | 7 | 8 | 9 | 10 | 11 | 12
MLL AF4-AF9 inh | -3.1 | . | . | -20 | 18 | -1.1
Vif TR-FRET | ? | 18% | . | -1% | 0% | -12%
Ecoli rRNA inh | 15 | . | . | 1 | -21 | -3
Ecoli rRNA inh OD600 | 5 | . | . | -4 | -29 | -3
Ecoli rRNA inh RFP | -0.1 | . | . | -3.7 | 5.3 | 9.9
ALR inh | 99* | -1 | -4 | 99* | 5 | 2
HNF4A DNA FP | 0.4 | -0.8 | 0.8 | 2.4 | -3.0 | -3.3
FGF22 binding | . | . | . | i | i | i
E coli growth | 0.64 | 0.68 | 0.68 | 0.67 | 0.67 | .

#13 Cc1cc(/C=N\NC(=O)c2cccs2)c(C)n1-c1ccc2ncccc2c1
#14 O=c1c(-c2ccccc2)coc2c(CN3CCCCC3)c(O)ccc12
#15 CC(C)NC(=O)Nc1ccc2c(c1)C(=O)N([C@H](C)CO)C[C@@H](C)[C@@H](CN(C)Cc1ccccc1)OCCCC[C@@H](C)O2
#16 COc1ccc(CC(=O)N2CC3(C)CC2CC(C)(C)C3)cc1OC (centres undefined)
#17 CC(=O)Nc1ccc(C(=O)CN2C(=O)CSC2=O)cc1
#18 CC(=O)c1sc2nc(CSc3nnnn3-c3ccccc3)[nH]c(=O)c2c1C
compound no. | 13 | 14 | 15 | 16 | 17 | 18
MLL AF4-AF9 inh | . | 1.5 | 1.6 | -0.2 | 2.4 | -4.2
Vif TR-FRET | 13% | . | . | -1% | . | ?
Ecoli rRNA inh | . | 0 | 0 | . | 12 | 4
Ecoli rRNA inh OD600 | . | 10 | -4 | . | 4 | 6
Ecoli rRNA inh RFP | . | -0.8 | -0.8 | . | 12 | 4.7
ALR inh | -8 | . | . | 71 | -7 | 1
HNF4A DNA FP | 1.9 | 3.1 | . | 2.5 | 7.5 | 38*
FGF22 binding | . | i | i | . | i | i
E coli growth | . | 0.66 | . | 0.76 | 0.65 | 0.72

Among those listed so far, 3 contain an aryl thioether with sulfur outside any ring.
#7 O=C(O)c1cccc(S(=O)(=O)Nc2ccc(O)c(Sc3nc4ccccc4s3)c2)c1
#8 COCCSc1ccccc1C(=O)N1CCOCC1
#18 CC(=O)c1sc2nc(CSc3nnnn3-c3ccccc3)[nH]c(=O)c2c1C
compound no. | 7 | 8 | 18
MLL AF4-AF9 inh | -3.1 | . | -4.2
Vif TR-FRET | ? | 18% | ?
Ecoli rRNA inh | 15 | . | 4
Ecoli rRNA inh OD600 | 5 | . | 6
Ecoli rRNA inh RFP | -0.1 | . | 4.7
ALR inh | 99* | -1 | 1
HNF4A DNA FP | 0.4 | -0.8 | 38*
FGF22 binding | . | . | i
E coli growth | 0.64 | 0.68 | 0.72

(list continues)
#19 O=S(=O)(NCc1ccc(Cl)c(Cl)c1)c1cc(Cl)ccc1N1CC[C@@H](O)C1
#20 CNC(=S)N1CCN(c2ccc([N+](=O)[O-])cc2)CC1
#21 CCc1nc2ccccc2n1CC(=O)N1CCN(Cc2ccccc2)CC1
#22 Nc1ccccc1S(N)(=O)=O
#23 CCN(c1ccccc1)S(=O)(=O)c1ccc(OC)c(NC(=O)C2CC(=O)N(Cc3ccccc3)C2)c1 (centres undefined)
#24 Cc1c(C)c2c(OCC(=O)N3CCC(O)CC3)cc3c(c2oc1=O)CCC(C)(C)O3
compound no. | 19 | 20 | 21 | 22 | 23 | 24
MLL AF4-AF9 inh | -1.3 | . | -1.1 | -22 | 0.0 | -3.1
Vif TR-FRET | . | 2% | -3% | . | . | .
Ecoli rRNA inh | -36 | . | -13 | . | -31* | .
Ecoli rRNA inh OD600 | -75 | . | -10 | . | -7.1* | .
Ecoli rRNA inh RFP | -8.1 | . | 0.8 | . | -3.3* | .
ALR inh | . | 0 | -32 | -1 | -24 | -15
HNF4A DNA FP | . | 1.2 | -0.1 | -0.9 | 3.4 | 1.2
FGF22 binding | i | . | i | i | i | i
E coli growth | . | 0.64 | 0.65 | 0.68 | 0.69 | 0.76

(next part)
Results follow in this order: MLL AF4-AF9 inh	Vif TR-FRET	Ecoli rRNA inh	Ecoli rRNA inh OD600	Ecoli rRNA inh RFP	ALR inh	HNF4A DNA FP	FGF22 binding	E coli growth
25: Cc1cc(N2CCOCC2)nc2ccc(NC(=O)CCC(=O)N3CCCCC3)cc12
 : .	0%	.	.	.	4	-3.1	.	0.71
26: COc1ccc([N+](=O)[O-])cc1N(CC(O)CN1C(=O)NC(C)(C)C1=O)S(=O)(=O)c1ccc(C)cc1 (centres undefined)
 : 0.7	.	7	17	-1.5	.	0.0	i	.
27: CCCn1c2c(c(O)c(C(=O)NC)c1=O)CCCC2
 : .	-7%	.	.	.	-2	19	.	0.7
28: Cc1ccc(S(=O)(=O)N2CCN(c3nccnc3C#N)CC2)cc1
 : 0.7	17%	-14	-5	2.9	-1	-0.1	i	0.61
29: CCCCc1c(-c2ccccc2OC)ncn1CCc1cccc(Cl)c1
 : 13	.	-61	-77	-19	.	1.4	i	.
30: O=C(C[C@H]1C=C[C@H](NS(=O)(=O)c2ccccc2)[C@H](CO)O1)N1CCN(c2ccccc2)CC1
 : -2.0	.	-1	7	0.7	.	.	i	.
31: COC(=O)c1ccc(Oc2nc(Nc3ccccc3)nc(N(C)C)n2)cc1
 : .	1%	.	.	.	-6	3.3	.	0.73
32: CCN(CC)S(=O)(=O)c1ccc(O)c(NS(=O)(=O)c2ccccc2F)c1
 : -8.7	20%	-14	-10	6.0	50	1.1	i	0.7
33: Cc1cc(NC(=O)CS(=O)(=O)Cc2ccccc2)no1
 : -10	-8%	1	3	-2.9	.	-2.5	i	0.71
34: CCOc1ccc(-c2cn(CCC#N)cn2)cc1
 : .	-3%	.	.	.	-6	2.5	.	0.63
35: COc1ccc(S(=O)(=O)Nc2cccc3c2O[C@@H](CN(C)S(=O)(=O)c2ccc(OC)cc2)[C@H](C)CN([C@H](C)CO)C3=O)cc1
 : 3.9	.	-2	0	5.1	.	.	i	.
36: CO[C@H]1CN(C)C(=O)c2ccc(NC(C)=O)cc2OC[C@H](C)N(C(=O)c2ccccn2)C[C@H]1C
 : -1.1	.	3	12	-1.7	.	.	i	.
37: CCCCC(=O)NC1(C(F)(F)F)C(=O)Nc2c1c(=O)n(C)c(=O)n2C (centres undefined)
 : .	1%	.	.	.	-26	-2.8	.	0.67
38: CCOC(=O)C1CCCN(C(=O)c2ccccc2)CC1 (centres undefined)
 : -5.1	.	8	1	1.4	.	0.5	i	.
39: Cc1cccc(NC(=O)CNC(=O)c2ccc3nc[nH]c3c2)c1C
 : -25	10%	11	20	-1.3	-14	-8.7	i	0.59
40: CC(C)CCc1noc(CN(C)CCC2CCOCC2)n1
 : -2.1	23%	1	-4	-1.7	-1	4.2	i	0.72
41: O=C(Nc1ccon1)c1ccc(Br)s1
 : 0.2	.	8	16	-0.7	-1	-1.8	i	0.74
42: CCO[C@@H]1OC(C(=O)N2CCOCC2)=C[C@H](c2cn(C(C)=O)c3ccccc23)[C@H]1CCCO
 : -1.3	4%	3	-5	0.8	-11	3.7	i	.
43: CNc1cc(N2CCCC2)ccc1[N+](=O)[O-]
 : .	15%	.	.	.	.	2.9	.	0.73
44: N#Cc1c2n(c3c(-c4ccccc4)ncnc13)CCC2
 : .	-5%	.	.	.	0	1.7	.	0.72

Compounds above with a Cl atom:
Results follow in this order: MLL AF4-AF9 inh	Vif TR-FRET	Ecoli rRNA inh	Ecoli rRNA inh OD600	Ecoli rRNA inh RFP	ALR inh	HNF4A DNA FP	FGF22 binding	E coli growth
3: Cc1ccc(C)c(N2CCN(C(=O)Cc3c(C(=O)O)[nH]c4ccc(Cl)cc34)CC2)c1
 : 2.7	4%	-3	2	7.0	11	-1.2	i	0.7
19: O=S(=O)(NCc1ccc(Cl)c(Cl)c1)c1cc(Cl)ccc1N1CC[C@@H](O)C1
 : -1.3	.	-36	-75	-8.1	.	.	i	.
29: CCCCc1c(-c2ccccc2OC)ncn1CCc1cccc(Cl)c1
 : 13	.	-61	-77	-19	.	1.4	i	.

Carrying on:
Results follow in this order: MLL AF4-AF9 inh	Vif TR-FRET	Ecoli rRNA inh	Ecoli rRNA inh OD600	Ecoli rRNA inh RFP	ALR inh	HNF4A DNA FP	FGF22 binding	E coli growth
45: COc1ccc(S(=O)(=O)Nc2ccc3c(c2)C(=O)N([C@@H](C)CO)C[C@H](C)[C@@H](CN(C)Cc2ccc(C(F)(F)F)cc2)OCCCC[C@H](C)O3)cc1
 : -0.4	.	-1	-10	8.2	.	.	i	.
46: O=C1OCC(O)=C1Cc1ccccc1
 : 2.3	-3%	18	20	3.5	.	-5.2	i	.
47: C[C@H]1NC(=O)[C@]2(C)[C@@H](c3ccccc3)[C@H]3COc4ccccc4[C@H]3N2C1=O
 : -2.4	.	7	5	-1.8	.	1.0	i	.
48: COc1cccc(OCC(O)CNC2CCCC2)c1 (centres undefined)
 : -4.0	12%	10	7	0.6	-8	1.6	i	0.68
49: Cc1ccc(S(=O)(=O)NCC2CCC(C(=O)NCc3ccccn3)CC2)cc1 (centres undefined)
 : -1.8	8%	6	12	1.2	15	10	i	0.72
50: CCCCn1c(-c2cccnc2)n[nH]c1=S
 : 3.2	?	.	.	.	-1	-2.2	i	0.7
51: O=C(Nc1ccc(Br)cc1)C1CCN(C(=O)c2ccc(F)cc2)CC1
 : .	-11%	.	.	.	-6	-0.6	.	0.64
52: CC1(C)Cc2c(c(N3CCOCC3)nc3sc4c(NCc5ccco5)nnnc4c23)CS1
 : .	18%	.	.	.	30	-2.3	.	0.7
53: N=c1c(S(=O)(=O)c2ccc(Cl)cc2)cc2c(=O)n3ccccc3nc2n1C1CCCCC1
 : 4.8	-1%	1	0	-0.2	.	-11	i	0.72
54: O=C(CN1CCCCC1)Nc1ccccc1-c1ccccc1
 : 4.1	2%	-15*	6.0*	-1.5*	-1	-1.2	i	0.68

Not all compounds are listed. The share of hits here may be higher or lower than overall.
